Screening results as filed in PubChem.
KCNQ2 pot – potentiators of rat KCNQ2 potassium channel | O88943 | CHO-K1 KCNQ2, FluxOR thallium flux fluorescence; stronger effect = higher value | B-score at 10 µM | 310,000 compounds, 0.54% hits;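 active = fluorescence ratio B-score at least 3 SD of library B-scores, with initial fluorescence B-score within 3 SD, cut at about 5.3 in these data; same plate scores as AID 2156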;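 also: B-score of peak minus minimum over baseline fluorescence ratio after K+ and Tl+ stimulus; positive B-score means potentiation of KCNQ2 with more thallium influx and brighter signal; only the inactives scoring about 0 or higher are listed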
Target sequence (O88943 whole entry, looked up): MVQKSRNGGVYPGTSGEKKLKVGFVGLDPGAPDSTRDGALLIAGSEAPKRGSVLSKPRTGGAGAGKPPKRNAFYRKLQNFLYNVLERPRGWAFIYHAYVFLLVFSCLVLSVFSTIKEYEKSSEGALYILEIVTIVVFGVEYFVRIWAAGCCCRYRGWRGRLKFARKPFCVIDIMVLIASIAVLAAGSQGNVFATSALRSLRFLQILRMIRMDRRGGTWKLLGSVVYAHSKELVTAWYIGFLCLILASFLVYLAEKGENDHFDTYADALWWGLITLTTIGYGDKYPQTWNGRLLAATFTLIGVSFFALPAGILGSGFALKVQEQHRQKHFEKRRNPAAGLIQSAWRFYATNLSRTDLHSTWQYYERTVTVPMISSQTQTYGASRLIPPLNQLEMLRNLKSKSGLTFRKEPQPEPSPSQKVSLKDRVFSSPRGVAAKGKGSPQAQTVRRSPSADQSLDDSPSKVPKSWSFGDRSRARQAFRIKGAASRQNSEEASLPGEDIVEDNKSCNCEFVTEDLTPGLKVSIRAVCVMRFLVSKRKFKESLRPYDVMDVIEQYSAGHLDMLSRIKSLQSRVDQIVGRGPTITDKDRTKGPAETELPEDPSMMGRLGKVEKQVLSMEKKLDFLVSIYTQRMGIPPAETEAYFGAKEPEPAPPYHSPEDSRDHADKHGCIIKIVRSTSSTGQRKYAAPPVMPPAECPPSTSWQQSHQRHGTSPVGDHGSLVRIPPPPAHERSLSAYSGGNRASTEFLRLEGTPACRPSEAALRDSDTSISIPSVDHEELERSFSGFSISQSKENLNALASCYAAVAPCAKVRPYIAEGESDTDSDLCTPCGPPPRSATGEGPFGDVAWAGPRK
KCNQ2 pot baseline – also measured in KCNQ2 pot; calls as there; B-score; compound at 10 µM; measured here: initial fluorescence intensity artifact check;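 brightness before thallium and not channel activity; 0 = typical well and far values either way flag optical interference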
* = called active by the depositor.

SMILES	KCNQ2 pot	KCNQ2 pot baseline
C=CCOC(=O)C1=C(C)Nc2nnnn2C1c1cc(OC)ccc1OC (configuration not stated)	0.95	0.52
CC(=O)Nc1cccc(NC(=O)CCn2cnc3cc(C)c(C)cc32)c1	0.39	2.1
Cc1ccc(CSc2nc3ccncc3n2CC(=O)Nc2cc(C)cc(C)c2)cc1	0.55	-0.87
Cn1c(=O)cc(N2CCc3ccccc32)[nH]c1=O	3.2	-0.04
Cc1cccc(OCC(=O)Nc2ccc3oc(=O)ccc3c2)c1C	2.1	-3.5
CCOC(=O)N1CCN(C(=O)CSC2=NS(=O)(=O)c3cc(F)ccc3N2)CC1	0.96	-1.2
N#Cc1c(-c2ccccc2)nc(SCc2ccc(Cl)cc2)[nH]c1=O	3.6	0.82
COc1ccc(CNC(=O)[C@H](C)NC(=O)N2CCn3c2nc2ccccc23)cc1	0.18	0
Cc1cc2ccccn2c1C(=S)NC(=O)c1ccccc1	19*	0.17*
c1ccc2c(c1)nc(Nc1ccc(N3CCCCC3)cc1)c1nncn12	2.3	1.3
CCOC(=O)c1c(/N=C/C2=C(O)CCCC2=O)sc(C)c1C	0.89	0.01
CCOC(=O)C1CCCN(S(=O)(=O)c2ccc(Cl)nc2)C1 (configuration not stated)	0.11	0.1
CCc1nnc(NC(=O)c2cccs2)s1	0.85	-0.05
CCCCC(=O)NC1=C(C(=O)OC)SCC1	0.87	-0.03
CCC(C)(C)NC(=O)CN(C(=O)c1csnn1)c1cccc2c1CCCC2	0.36	0.26
COc1cccc(OCc2cc(/C=N/Nc3ccc(C(=O)O)cc3)ccc2OC)c1	0.07	0.29
CCC1Oc2ccccc2C(=O)N(CC(=O)c2ccc3c(c2)OCCO3)C1=O (configuration not stated)	0.01	-1.5
O=C(/C(C=Nc1cc2c(oc1=O)CCCC2=O)=C(\O)c1ccccc1)c1ccccc1	1.5	-0.66
COc1ccc(NC(=O)C2CCC(CNS(=O)(=O)c3cccs3)CC2)cc1 (configuration not stated)	0.02	1.7
CCCCOC(=O)c1ccc(NC(=O)C(=O)NCc2ccccn2)cc1	1.7	1.6

Reprinted from the part before: five entries, followed by the next part.
SMILES	KCNQ2 pot	KCNQ2 pot baseline
COc1cccc(OCc2cc(/C=N/Nc3ccc(C(=O)O)cc3)ccc2OC)c1	0.07	0.29
CCC1Oc2ccccc2C(=O)N(CC(=O)c2ccc3c(c2)OCCO3)C1=O (configuration not stated)	0.01	-1.5
O=C(/C(C=Nc1cc2c(oc1=O)CCCC2=O)=C(\O)c1ccccc1)c1ccccc1	1.5	-0.66
COc1ccc(NC(=O)C2CCC(CNS(=O)(=O)c3cccs3)CC2)cc1 (configuration not stated)	0.02	1.7
CCCCOC(=O)c1ccc(NC(=O)C(=O)NCc2ccccn2)cc1	1.7	1.6
CCN(CCO)Cc1csc2cc(C)ccc12	0.46	-0.13
O=S(=O)(NCCN1CCOCC1)c1cccs1	1.6	-0.92
O=C(Cn1nc(-c2ccccc2)ccc1=O)Nc1ccc(NC(=O)c2ccccn2)cc1	1.1	-2
CCCCCCn1c(=O)c(Cc2ccccc2)c(O)c2ccccc21	2.4	-0.33
CCN(CC(=O)Nc1ccccc1C(F)(F)F)C(=O)CN1C(=O)NC(C)(c2ccccc2)C1=O (configuration not stated)	0.89	0.13
COc1ccc(C(=O)n2c(C)c(CCO)c(=O)n2C)cc1	1.8	0.57
CCOC(=O)N1CCN(C2CC(=O)N(c3ccc(C)cc3)C2=O)CC1 (configuration not stated)	0.33	-0.82
COc1ccc(C(=O)Nc2ccc(C)c(S(=O)(=O)N3CCCCCC3)c2)cc1	1.3	-1.1
CCC(=O)Nc1cc(C(=O)OCC(=O)c2ccc(Cl)cc2Cl)ccc1C	0.03	0.43
CNS(=O)(=O)c1cccc(C(=O)NCC(c2cccs2)N2CCOCC2)c1 (configuration not stated)	1.8	-0.01
C=CCN1c2ccccc2[C@]23C[C@@H](C(=O)OC)N(C(=O)C4CCC4)C2=NC(C(=O)OC)=C(C(=O)OC)[C@H]13	0.04	0.11
CC1CCN(C(=O)CSc2nnc(-c3ccccc3F)o2)CC1	1.2	-0.38
NC(=O)[C@@H]1CC2(CC(c3cccc(NC(=O)[C@H]4CCC(=O)N4)c3)=NO2)CN1C(=O)c1ccc(Cl)cc1 (some centres not stated)	0.34	-1.3
COc1ccc(OC)c(N=C(N)N=C(N)N)c1	1.3	-0.34
COc1ccc(/C=N/Nc2nc3ccccc3o2)cc1OC	1.6	-1.1
COc1ccc(C(=O)N2N=C3CC(C)(C)OCC3C2c2ccccc2)cc1 (configuration not stated)	1.2	0.1
O=C1CC(Sc2nnnn2C2CCCCC2)C(=O)N1c1ccccc1 (configuration not stated)	0.9	-2.3
COc1cc(SC)ccc1C(=O)NCCN1CCOCC1	1.1	-0.87
Cc1ccc(C)c2[nH]c(=O)c(CN(Cc3cccnc3)C(=S)NCc3ccco3)cc12	0.02	1.6
Cc1ccc(S(=O)(=O)NC2CCCCCC2)cc1C(N)=O	0.63	-0.97
CCOC(=O)c1sc2nc(C)nc(SCC(N)=O)c2c1C	1.4	0.07
CCN(CC)C(=O)c1cc2c(=O)n3ccccc3nc2s1	0.76	-0.88
CCN=C1SC(C(=O)Nc2ccc(OCC)cc2)CC(=O)N1CC (configuration not stated)	1.1	0.44
CC1(C(=O)NC2CCCCCCC2)CC1(Cl)Cl (configuration not stated)	1.4	-0.05
CC1(C(=O)O)CCC(C(=O)Nc2ccccc2)C1(C)C (configuration not stated)	0.55	4.1
CCn1c(SCC(=O)Nc2ccc(N(C)C)cc2)nnc1C1CC1	0.13	-2.1
Cc1c(C(=O)NC2CCCCC2C)oc2ccccc12 (configuration not stated)	0.33	1.8
Cc1cccc(N2CCN(C(=O)C(Cc3ccccc3)NC(N)=O)CC2)c1C (configuration not stated)	0.13	-0.5
COc1ccc(C(C)(C)C)cc1NC(=O)COC(=O)c1ccc([N+](=O)[O-])o1	0.64	-1.3
O=C(O)c1cc(NN=C2c3ccccc3-c3ccccc32)ccc1Cl	9.2*	0.2*
CCN(CC)CCCNC(=O)c1cc(Nc2ccc(OC)cc2OC)nc2ccccc12	0.16	-1.8
CC(C)[C@H](NC(=O)N1CCn2c1nc1ccccc12)C(=O)NC1CC1	0.4	1.5
Cc1cccc(-c2nc3c(c(SCC(=O)N4CCCC4)n2)COC(C)(C)C3)c1	0.5	-0.8
Cc1cc(C)cc(NC(=O)c2cccc(NC(=O)c3ccco3)c2)c1	1.3	-0.01
COc1ccc(CN(CC2CCCO2)C(=O)CN2C(=O)COc3ccccc32)cc1OC (configuration not stated)	2.3	-0.25
COc1ccc(OC)c(NC(=O)c2ccc(Cl)cc2)c1	6.5*	-1.2*
CCOc1ccc(CCNC(=O)c2c(C)noc2C)cc1OCC	1.9	-0.12
Cc1nc(N2CCOCC2)c2c(C)c(C(=O)Nc3ccc(C(F)(F)F)cc3)sc2n1	0.27	2.3
CCC(COC)NC(=O)CCc1nnc(Cc2c[nH]c3ccccc23)o1 (configuration not stated)	0.57	-2.3
CSc1cc(-c2ccc(Cl)cc2)c(C(=O)NN)s1	0.32	2

3 of the entries above in order of their number in KCNQ2 pot, falling:
| compound | KCNQ2 pot | KCNQ2 pot baseline |
| --- | --- | --- |
| O=C(O)c1cc(NN=C2c3ccccc3-c3ccccc32)ccc1Cl | 9.2* | 0.2* |
| CC1(C(=O)O)CCC(C(=O)Nc2ccccc2)C1(C)C (configuration not stated) | 0.55 | 4.1 |
| CC(C)[C@H](NC(=O)N1CCn2c1nc1ccccc12)C(=O)NC1CC1 | 0.4 | 1.5 |

(cont.)
SMILES	KCNQ2 pot	KCNQ2 pot baseline
COc1c(Cl)cc(-c2noc(C)c2C(=O)NCc2ccc3c(c2)OCO3)cc1Cl	14*	0.01*
Cc1nn(C(C)C(=O)Nc2sc3c(c2C#N)CCCC3)c(C)c1[N+](=O)[O-] (configuration not stated)	0.07	-0.48
Nc1cc(N)nc(SCC(=O)Nc2ccc(Br)cc2Cl)n1	2.5	-1.3
Cn1cc(/C=N/n2cnc3scc(-c4ccc(Cl)cc4)c3c2=O)c2ccccc21	0.03	0.44
O=c1[nH]c(SCc2ccc(Cl)cc2)nc2ccccc12	0.67	-1
O=C(CCC(=O)N(CC(=O)NC1CCCCC1)Cc1cccs1)Nc1nccs1	0.12	-0.21
CC1CCCN(C(=O)C2CCN(c3ncnc4c3nc3n4CCCCC3)CC2)C1 (configuration not stated)	0.58	-0.02
CC1CCc2c(sc(NC(=O)C(=O)NCc3ccco3)c2C#N)C1 (configuration not stated)	2	0.71
Cc1cc(C)n(-c2nnc(C)n2/N=C/c2ccc(O)cc2)n1	0.06	0.46
O=C(NC1CCCC1)C(c1ccccc1)N(C(=O)c1csnn1)c1ccccc1F (configuration not stated)	0.47	2.5
CS(=O)(=O)N(CC(=O)Nc1cccc([N+](=O)[O-])c1)c1ccccc1	1.1	0.39
N=c1c(C(=O)NCc2ccc(F)cc2)cc2c(=O)n3ccccc3nc2n1Cc1cccnc1	0.58	3.8
Cc1ccc(-c2ccc(=O)n(CC(=O)NCC3COCCO3)n2)cc1 (configuration not stated)	1.8	-0.24
CC(C)c1ccc(S(=O)(=O)N2CCN(C(=O)CN3C(=O)NC4(CCCC4)C3=O)CC2)cc1	0.46	0.04
COc1ccc(Cn2c(C)c(C)c(C#N)c2NC(=O)Nc2ccc(F)cc2)cc1	0.76	0.07
CCCCCC(=O)Nc1cccc(C2=NOC3(C2)C[C@@H](C(N)=O)N(C(=O)c2ccc(OC)cc2)C3)c1 (some centres not stated)	1.1	-0.14
COc1cc(C(=O)c2ccccc2)c([N+](=O)[O-])cc1OC	0.3	-1.5
CCOc1cccc2cc(C(=O)Nc3nccs3)c(=O)oc12	1.7	1.8
COc1ccc(OC)c(-c2nc3c(C)n[nH]c(=O)c3[nH]2)c1	0.59	0.09
COc1ccc(NC(=O)CCNS(=O)(=O)c2ccc(Br)s2)cc1	1.3	-2.5

5 records drawn at random from those above:
SMILES	KCNQ2 pot	KCNQ2 pot baseline
CCCCC(=O)NC1=C(C(=O)OC)SCC1	0.87	-0.03
C=CCOC(=O)C1=C(C)Nc2nnnn2C1c1cc(OC)ccc1OC (configuration not stated)	0.95	0.52
CCCCCCn1c(=O)c(Cc2ccccc2)c(O)c2ccccc21	2.4	-0.33
CSc1cc(-c2ccc(Cl)cc2)c(C(=O)NN)s1	0.32	2
COc1ccc(C(=O)Nc2ccc(C)c(S(=O)(=O)N3CCCCCC3)c2)cc1	1.3	-1.1

Additional records
SMILES	KCNQ2 pot	KCNQ2 pot baseline
Cn1c(N)c(C(=O)COC(=O)C2CCCCC2)c(=O)n(C)c1=O	1.2	0.75
Cc1c(C2C(C#N)=C(N)N(c3ccccc3C#N)C3=C2C(=O)CCC3)cnn1C (configuration not stated)	0.27	1.6
COC(=O)c1c(NC(=O)CC2SCC(C(=O)OC)NC2=O)sc2c1CCCC2 (configuration not stated)	0.72	-0.5
Cc1cccc(C)c1NC(=O)CN(C)C(=O)c1ccc(-n2cncn2)c([N+](=O)[O-])c1	1.2	-2.1
N#CCCN(C(=O)COC(=O)C1CCN(S(=O)(=O)c2cccs2)CC1)c1ccccc1	1.3	-0.39
CN(C)c1nc(=Nc2cccc(Cl)c2)ss1	1.7	-0.47
O=C(O)CN=C1NC2(CCCCC2)Cc2ccccc21	0.57	-0.4
CCc1ccccc1NS(=O)(=O)c1cc(C)ccc1OC	0.58	0.2
O=C(COc1ncnc2ccccc12)Nc1ccc(Cl)c(S(=O)(=O)N2CCOCC2)c1	0.29	0.04
COc1cccc(-c2nnc(NC(=O)Cc3cccs3)s2)c1	0.06	1.5
Cc1ccc(-n2nnc3c(=O)oc4ccccc4c32)cc1	1.4	-0.02
CC1=NN(c2nc(-c3ccccc3)cs2)C(=O)C1N=Nc1ccccc1 (configuration not stated)	0.16	-1.2
Cc1nnc(-c2ccccc2)nc1N(C)C	0.3	2
CN(Cc1cnccn1)C(=O)CC1C(=O)NCCN1Cc1cccc(F)c1 (configuration not stated)	1.9	-0.93
O=C(NC1CCCCC1)C(c1ccccc1)N(C(=O)c1csnn1)C1CC1 (configuration not stated)	0.07	-0.1
Cc1ccccc1S(=O)(=O)NNC(=O)C(=O)NNc1ccccn1	1.8	-0.04
Cc1ccccc1CN1CCN(CC2CC3C=CC2C3)CC1 (configuration not stated)	0.01	0.62
CCOC(=O)C1CCCN(C2CCN(Cc3nc(-c4ccccc4)no3)CC2)C1 (configuration not stated)	0.73	0.67
NC(=O)c1nnn(-c2ccc([N+](=O)[O-])cc2)c1-c1ccccc1	0.32	1.4
CC(C)c1ccc(CNC(=O)C(=O)Nc2nccs2)cc1	2	-1.8
COc1ccc(S(=O)(=O)N2CCCC2)cc1C(=O)O	0.03	0.38
CC1CCCCN1C(=O)COC(=O)c1ccc(=O)n(Cc2ccccc2)n1 (configuration not stated)	0.01	1.4
CCOC(=O)c1ccc(Nc2ncnc3nc[nH]c23)cc1	0.11	-2
Cc1ccc(C(C)NC(=O)C2CCCC2)c(C)c1 (configuration not stated)	0.67	-0.11
Cc1ccc(NC(=O)Nn2cnnc2)c(C)c1	1.7	-1.5
Cc1ccc(CNS(=O)(=O)NCc2cccs2)cc1	0.51	-1.9
O=C(CCN1CCCCO1)N1CCCC(Nc2ccc(F)c(F)c2)C1 (configuration not stated)	1.3	-1.3
O=C(Nc1cc(C(F)(F)F)ccc1Cl)c1cccnc1	0.85	0.18
Cc1c(C(=O)Nc2ccc(OC(F)(F)F)cc2)sc2nc3n(c(=O)c12)CCC3	0.33	-0.25
O=C(N/N=C/c1cc2c(cc1[N+](=O)[O-])OCO2)c1cccnc1	1.5	-1.6
O=C(Cc1ccc(-c2ccccc2)cc1)NNC(=S)NCc1ccco1	0.79	1.1
O=C(NCCCNC(=O)c1ccc(-c2cc(Cl)ccc2Cl)o1)c1cnccn1	1.7	-0.67

The list is partial, so the mix of outcomes need not match the whole.
